Lassa entry inh: qHTS for Inhibitors of binding or entry into cells for Lassa Virus; Potency, µM (highest dose often 37.9 µM), for the others: at the top dose activity change, negative = inhibition, hits mostly inhibitors; 1.2% of 300,000 active; Lassa virus pseudotype entry inhibition, cell reporter; control for the full effect not named in the record; active means well fitted inhibition curve with a large enough effect; inconclusive means small, poorly fitted or top-dose-only effect, or effect the other way; inactive means flat fitted curve, though single readings scatter; tested in HEK293 cells; note: % is set by controls: 0 for no effect and ±100 for the full control effect; nearly all actives have a fitted effect of over 50% in size; luciferase read-out
Cruzain Triton: qHTS Assay for Promiscuous and Specific Inhibitors of Cruzain (with detergent) | 0.43% of 200,000 active | Cruzipain (Trypanosoma cruzi), P25779 | purified cruzain, Z-FR-AMC fluorescence, 0.01% Triton | Potency, µM, for the others: max response, negative = inhibition, actives largely listed as inhibitors; active = well fitted curve in the direction sought with a large enough effect; inconclusive = small, poorly fitted or top-dose-only effect, or another doubt; inactive = no such curve, though single readings can be large; an effect the other way counts as inactive or inconclusive;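 note: plate controls were neutral wells for no effect and buffer without enzyme for full effect; nearly all actives have a fitted effect of over 40% in size; top concentration of the series not given in the record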
Target sequence (P25779 123-467 limits assumed): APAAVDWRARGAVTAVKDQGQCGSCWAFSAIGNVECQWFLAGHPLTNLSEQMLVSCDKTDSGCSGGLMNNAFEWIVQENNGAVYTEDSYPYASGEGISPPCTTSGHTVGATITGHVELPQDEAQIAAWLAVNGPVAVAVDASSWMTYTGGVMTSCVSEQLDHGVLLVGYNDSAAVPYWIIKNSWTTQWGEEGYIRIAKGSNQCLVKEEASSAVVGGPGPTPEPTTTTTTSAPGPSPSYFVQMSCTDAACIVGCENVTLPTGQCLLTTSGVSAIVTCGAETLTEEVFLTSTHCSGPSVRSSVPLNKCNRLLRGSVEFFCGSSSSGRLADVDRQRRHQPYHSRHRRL
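Z-FR-AMC hydrolysis (2 uM substrate) by cruzain (1.5 nM) monitored kinetically at ex 360/em 450 nm after 15 min room-temperature compound exposure; 0.01% Triton X-100, pH 5.5, 5 mM DTT.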
SARS PLpro yeast: qHTS of Yeast-based Assay for SARS-CoV PLP | S. cerevisiae expressing SARS-CoV PLpro, growth rescue; control for the full effect not named in the record | Potency, µM (titrated, usually from 32.9 µM), for the others: at the highest dose activity, positive = growth rescue | 0.19% of 330,000 active | AID 485353, 2010; note: 0% is about no effect; nearly all actives have a fitted effect of over 55% in size; growth read by luminescence after 48 h
Marburg entry inh: qHTS for inhibitors of binding or entry into cells for Marburg Virus | Marburg virus pseudotyped entry inhibition, cell reporter; control for the full effect not named in the record; about a third of the inactives were read at about 46 µM | Potency, µM (highest dose often 37.8 µM), for inactives: at the top dose activity change, negative = inhibition, actives largely listed as inhibitors | 1.8% of 300,000 active | AID 540276, 2011; active = well fitted inhibition curve with a large enough effect; inconclusive = small, poorly fitted or top-dose-only effect, or effect the other way; inactive = flat fitted curve, though single readings scatter; tested in HEK293 cells; about a fifth of its hits are not listed in these tables; note: % is set by controls: 0 for no effect and ±100 for the full control effect; luciferase read-out
Cruzain inh noDet: qHTS Assay for Promiscuous and Specific Inhibitors of Cruzain (without detergent) | Cruzipain (Trypanosoma cruzi), P25779 | 2.3% of 200,000 active | Potency, µM, without a hit: max response, negative = inhibition, usual class: inhibitors | purified cruzain, Z-FR-AMC fluorescence, no detergent | AID 1476, 2009; active = well fitted curve in the direction sought with a large enough effect; inconclusive = small, poorly fitted or top-dose-only effect, or another doubt; inactive = no such curve, though single readings can be large; an effect the other way counts as inactive or inconclusive;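 note: plate controls were enzyme without inhibitor for no effect and buffer without enzyme for full effect; nearly all actives have a fitted effect of over 40% in size; top concentration of the series not given in the record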
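Purified cruzain at 1.5 nM, pre-incubated 15 min with compound at room temperature in 100 mM sodium acetate pH 5.5, 5 mM DTT, 0.00005% Triton X-100. Reaction started with 2 uM Z-FR-AMC; AMC fluorescence increase over 60 s gives rate.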
NS1 inh: qHTS Assay for Inhibitors of Influenza NS1 Protein Function | Potency, µM (series often up to 46.1 µM), without a hit: top-dose activity, positive = more growth | 0.4% of 270,000 active | S. cerevisiae slowed by influenza A NS1, growth recovery by OD600; note: actives are rising curves; nearly all actives have a fitted effect of over 50% in size
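OD600 was taken as the measure of yeast growth restored by compound in an NS1-expressing S. cerevisiae strain. Cells had been washed out of glucose medium and diluted 1:100 into galactose -URA medium, pH 6.0.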
2A StopGo: High Throughput Screening for Foot and Mouth Disease Virus Antivirals | human cells with a luciferase reporter of 2A StopGo recoding; control for the full effect not named in the record | 1.2% of 410,000 active | AID 1159524, 2015 | Potency, µM (top dose mostly 57.9 µM), for the others: top-dose signal change, negative = less light; active = well fitted falling curve with a large enough effect; inconclusive = small, poorly fitted or top-dose-only effect; inactive = no such curve, though single readings can be large or run the other way; tested in HEK293T cells; note: % is set by controls: 0 for no effect and ±100 for the full control effect; nearly all actives have a fitted effect of over 45% in size; luciferase light after 4 h
RE007 growth inh: qHTS Assay for Inhibitors of the HIV-1 protein Vpr | 0.21% of 360,000 active | S. pombe RE007 Vpr strain, BacTiter-Glo ATP luminescence, 24 h; control for the full effect not named in the record | Potency, µM (titrated, usually from 92.2 µM), without a hit: at the top dose activity change, negative = less growth; active = well fitted falling curve with a large enough effect; inconclusive = small, poorly fitted or top-dose-only effect; inactive = no such curve, though single readings can be large or run the other way;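 note: % is set by controls: 0 for no effect and ±100 for the full control effect; nearly all actives have a fitted effect of over 50% in size; the assay follows cell death caused by Vpr and the record does not say whether a fall means rescue or toxicity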
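Fission yeast RE007 carrying one integrated HIV-1 vpr copy, seeded at OD 0.01 in PMG+AL medium with 23 nL pinned compound. Grown 24 h at 30 degrees; viability read by BacTiter-Glo luminescence after 5 min.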
Numbers without * were called inactive; ? = inconclusive; . = no result given; [ ] = another dose, or the depositor's remark. Unless noted, calls come from the whole dose curve; as a rule, active means well fitted rising curve with a large enough effect; inconclusive means small, poorly fitted or top-dose-only effect; inactive means no such curve, though single readings can be large or run the other way. Potency is the fitted concentration of half-maximal effect.

SMILES	Lassa entry inh	Cruzain Triton	SARS PLpro yeast	Marburg entry inh	Cruzain inh noDet	NS1 inh	2A StopGo	RE007 growth inh
Cc1cc(-c2ccccc2)c2c(n1)sc1c(O)cc(=O)[nH]c12	.	.	2%	.	.	12%	-4%	-8%
COCCNC(=O)C(=O)NCC1OCCN1S(=O)(=O)c1ccc(F)cc1 (stereo unspecified)	-10%	.	-2%	-4%	.	-4%	1%	-11%
CCn1cc(C(=O)N(C)c2cc(C)ccc2C)c2cc(OC)c(OC)cc2c1=O	15%[46.1 µM]	-3.1%	.	?	-3%	.	-19%	.
CCCCCC(=O)N1CC2(CC(c3cccc(NC(=O)CC)c3)=NO2)C[C@H]1C(N)=O (stereo partly specified)	.	.	-3%	.	.	6%	1%	-7%
CC(OC(=O)C1=COCCO1)C(=O)Nc1cccc(S(=O)(=O)N2CCOCC2)c1 (stereo unspecified)	9%	.	1%	-6%	.	2%	0%	-4%
COc1ccc(OC)c(/C=C/C(=O)OCC(=O)c2c(N)n(C)c(=O)n(C)c2=O)c1	22%[46.1 µM]	.	1%	?	.	9%	17%	4%
O=C1OC(OC2CCCCC2)(c2ccccc2)c2ccccc21 (stereo unspecified)	29%[14.3 µM]	-4.3%	-25%	-5%	-5%	19%	-15%	16%
Cc1ccc(S(=O)(=O)NC(=O)c2cc(C)n(C3CC3)c2C)cc1	-21%	.	-1%	9%[46.1 µM]	.	.	-9%	15%
CSCCCN1CC[C@@H](N2CCN(c3ccccc3F)CC2)[C@H](O)C1	.	.	-5%	.	.	-11%	-1%	-2%
CCOC(=O)c1cc2c(C)n(-c3ccc(N(C)C)cc3)c(C)c2cc(C(=O)OCC)c1=O	-22%	-4.7%	-4%	22%	13%	1%	2%	2%
O=C(CSc1nnc2c(n1)[nH]c1ccccc12)NC1CCCCC1	?	.	12%	-22%[46.1 µM]	.	3%	-8%	25%
CCN1CCN(C(=O)CCc2ccc(S(=O)(=O)NCCc3ccccc3)cc2)CC1	19%	-1.3%	-2%	-18%[46.1 µM]	-6%	-6%	64%[activator]	19%
CN1CCCN(CC(O)COCc2cccs2)CC1 (stereo unspecified)	2%	1.5%	10%	0%	-4%	-7%	-6%	0%
O=c1[nH]cccc1-c1nc2ccccc2n1Cc1cccc(Cl)c1	.	.	1%	.	.	1%	?	11%
COc1ccc(Cl)cc1NC(=O)CN(C)Cc1cccs1	-27%[46.1 µM]	.	-1%	?	.	-32%	-24%	4%
O=c1c2ccccc2c(-c2ccccc2)nn1-c1cc(Cl)ccc1[N+](=O)[O-]	-12%	-0.9%	1%	-27%	?	16%	?	1%
Cc1ccc(NC(=S)NNC(=O)c2ccccc2O)c(C)c1	-17%[46.1 µM]	.	-4%	?	.	-7%	10%	4%
Cc1c(C(=O)Nc2ccc3c(c2)OCCO3)cnn1C	-7%[46.1 µM]	.	-1%	-20%[46.1 µM]	.	-8%	?	-7%
COc1ccc(-n2c(C)cc(C3=NNC(=NC4CC4)SC3)c2C)cc1	?	.	-2%	?	.	.	-37%	-7%
Cc1ccc(S(=O)(=O)NCC(=O)OCc2ccccc2)cc1	1%[46.1 µM]	.	1%	-19%[46.1 µM]	.	.	4%	10%
Cn1nnnc1SCC(=O)c1cccs1	12%	-1.9%	-10%	?	11%	-12%	7%	-15%
CC(C)N(Cc1cn(C)nc1-c1cccc(Cl)c1)CC1CCC(=O)N1 (stereo unspecified)	.	.	-1%	.	.	-1%	-7%	17%
CCCCCCNC(=O)CCNC(=O)c1cc(OC)c(OC)c(OC)c1	13%	0.2%	9%	-2%	13%	-6%	-9%	4%
Cc1cccc(Nc2ccccc2C(=O)OCC(=O)NCc2ccco2)c1C	-28%	-19%	-6%	?	-3%	-3%	-19%	-2%
O=C(CSC1=NS(=O)(=O)c2ccccc2N1)NCCc1ccccc1	14%[46.1 µM]	.	1%	-2%	.	.	1%	12%
Cc1cc(C(=O)NC2CCCN(Cc3ccccc3F)C2)n[nH]1 (stereo unspecified)	.	.	-1%	.	.	8%	9%	9%
CCN(C(=O)c1ccc(S(=O)(=O)N2CCCC2)cc1)C1CCS(=O)(=O)C1 (stereo unspecified)	?	.	-2%	?	.	.	-23%	4%
CCN(CC)CCN(C(=O)c1ccc2c(c1)OCCO2)c1nc2c(Cl)cccc2s1	-19%	.	-5%	?	.	-7%	-22%	-29%
CCN(C1CCS(=O)(=O)C1)S(=O)(=O)c1cccs1 (stereo unspecified)	-13%	5.0%	4%	3%	?	-5%	.	3%
CN(C)S(=O)(=O)c1cccc(NC(=O)c2cc(-c3cccs3)nn2-c2cccc(Cl)c2)c1	?	-1.2%	2%	?	?	28%	-14%	5%
CN(c1ccccc1)S(=O)(=O)c1cccc(NC(=O)c2ccc(=O)[nH]n2)c1	?	.	2%	?	.	.	-23%	-2%
Cc1nn(C(C)C(=O)NC2CC2)c(=O)c2nn(-c3ccccc3)c(C)c12 (stereo unspecified)	51%[46.1 µM]	.	2%	8%[46.1 µM]	.	10%	-13%	13%
CCn1c(/C=N/c2nc3ccccc3n2C)nc2ccccc21	2%	-4.9%	-7%	16%	1%	-5%	.	-14%
COCCN1CCn2c(nc3cc(NC(=O)NC4CCCCC4)ccc32)C1	10%	-12%	-8%	-29%	1%	?	23%	1%
COC(=O)C1=C(N)Oc2cc(C)[nH]c(=O)c2C1c1cc(OC)c(OC)c(OC)c1 (stereo unspecified)	-11%	-0.7%	-5%	?	-1%	8%	-13%	-3%
Cc1ccc(C(C(=O)NC2CCCCC2)N(Cc2cccnc2)C(=O)C2COc3ccccc3O2)o1 (stereo unspecified)	-29%	2.7%	7%	?	-2%	-36%	.	-18%
O=C(CN1C(=O)CCSc2ccc(S(=O)(=O)N3CCOCC3)cc21)Nc1cccc(F)c1	.	.	20%	.	.	5%	9%	-1%
O=C(NCc1ccccn1)C1CCC(=O)N1C1CCCCC1 (stereo unspecified)	.	1.2%	0%	3%	-2%	3%	16%	-4%
COCCNC(=O)CCc1nnc2ccc(N3CCC(C)CC3)nn12	.	.	2%	.	.	2%	-13%	5%
COc1ccc(NC(=O)C2CCCCN2N)cc1OC (stereo unspecified)	28%	-5.5%	-2%	16%	-1%	0%	14%	0%
Cc1ccccc1Nc1ncnc2[nH]ncc12	11%	.	.	12%	.	.	-3%	2%
CC(=O)N/C(=C\c1ccccc1)C(=O)OCC(=O)N(CC(C)C)c1c(N)n(Cc2ccccc2)c(=O)[nH]c1=O	25%	.	0%	-2%[46.1 µM]	.	.	-3%	1%
O=C1NC(=O)C(=Cc2cccc(OCCOc3ccccc3)c2)C(=O)N1	.	.	-1%	.	.	-7%	1%	-14%
CCOc1ccc(C(=O)NCc2ccc3c(c2)OCO3)cc1	6%[46.1 µM]	.	10%	18%[46.1 µM]	.	4%	11%	8%
S=c1[nH]nc(Cc2ccc(Br)cc2)n1/N=C/c1ccc(Cl)cc1	?	.	1%	.	.	10%	-20%	-9%
CCOC(=O)CN1CC23C=CC(O2)C(C(=O)Nc2ccc(OCC)cc2)C3C1=O (stereo unspecified)	.	2.9%	-2%	.	0%	0%	-4%	2%
CC(/C=C/c1ccccc1)=N\NC(=O)c1cc(C)nc2ccccc12	?	.	1%	?	.	-1%	?	4%
Cc1ccc(S(=O)(=O)N2CCC(=O)N(C(COCc3ccc(Cl)cc3Cl)Cc3ccccc3)CC2)cc1 (stereo unspecified)	6%	3.0%	1%	14%	3%	?	-17%	5%
Cc1cccc(C(=O)Nc2c3c(nn2C(C)(C)C)CS(=O)(=O)C3)c1	.	.	2%	.	.	16%	5%	-11%

As a short view, some entries already given.
SMILES	Lassa entry inh	Cruzain Triton	SARS PLpro yeast	Marburg entry inh	Cruzain inh noDet	NS1 inh	2A StopGo	RE007 growth inh
COCCNC(=O)CCc1nnc2ccc(N3CCC(C)CC3)nn12	.	.	2%	.	.	2%	-13%	5%
COc1ccc(NC(=O)C2CCCCN2N)cc1OC (stereo unspecified)	28%	-5.5%	-2%	16%	-1%	0%	14%	0%
Cc1ccccc1Nc1ncnc2[nH]ncc12	11%	.	.	12%	.	.	-3%	2%
CC(=O)N/C(=C\c1ccccc1)C(=O)OCC(=O)N(CC(C)C)c1c(N)n(Cc2ccccc2)c(=O)[nH]c1=O	25%	.	0%	-2%[46.1 µM]	.	.	-3%	1%
O=C1NC(=O)C(=Cc2cccc(OCCOc3ccccc3)c2)C(=O)N1	.	.	-1%	.	.	-7%	1%	-14%
CCOc1ccc(C(=O)NCc2ccc3c(c2)OCO3)cc1	6%[46.1 µM]	.	10%	18%[46.1 µM]	.	4%	11%	8%
S=c1[nH]nc(Cc2ccc(Br)cc2)n1/N=C/c1ccc(Cl)cc1	?	.	1%	.	.	10%	-20%	-9%
CCOC(=O)CN1CC23C=CC(O2)C(C(=O)Nc2ccc(OCC)cc2)C3C1=O (stereo unspecified)	.	2.9%	-2%	.	0%	0%	-4%	2%
CC(/C=C/c1ccccc1)=N\NC(=O)c1cc(C)nc2ccccc12	?	.	1%	?	.	-1%	?	4%
Cc1ccc(S(=O)(=O)N2CCC(=O)N(C(COCc3ccc(Cl)cc3Cl)Cc3ccccc3)CC2)cc1 (stereo unspecified)	6%	3.0%	1%	14%	3%	?	-17%	5%
Cc1cccc(C(=O)Nc2c3c(nn2C(C)(C)C)CS(=O)(=O)C3)c1	.	.	2%	.	.	16%	5%	-11%

Assay outcomes (PubChem BioAssay)
